Calb biofilm kill: mixtures killing C. albicans biofilm; C. albicans biofilm persisters + clotrimazole, fluorescence viability; primary screen in compound mixtures of four per well; 0.02% of 120,000 active; inhibition, % at 7.6 µM;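 active = inhibition above 30.3% in the primary screen of four-compound pools, then above 30% when the compound was retested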;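 note: compounds exposed to preformed 24 h biofilms for 48 h; the number belongs to the whole pool; some results filed as inactive read as strong as hits; inactives centre near 12; 0% = biofilm with clotrimazole alone and 100% = kill control; retested singly at about 60 µM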
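Test system: C. albicans CAF4-2 wild-type biofilms; buffer or medium: RPMI/MOPS medium, pH 7.0; schedule: 24 h biofilm formation, then 48 h compound exposure, 37 °C; detection: Alamar Blue fluorescence; measure: percent inhibition of biofilm viability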
* = called active by the depositor. Some of the compounds tested; count on the stated rates, not on these rows.

SMILES	Calb biofilm kill
Cc1[nH]n(-c2ccc(Br)cc2)c(=O)c1C=Nc1ccc(S(=O)(=O)Nc2nccs2)cc1	10.3
CC(=O)NCC(=O)N(Cc1ccco1)C1(C(=O)NC2CCCC2)CCCCC1	2.7
Cc1cc2nnc(SCC(=O)N3CCCCCC3)n2c(N)n1	20.3
Cc1ccc(C)c(S(=O)(=O)NCc2ccc(C(=O)N3CCCCCC3)cc2)c1	6.6
Cc1ccc(O)c(CNn2cnnc2)c1	12.0
Cn1cc(Br)c(-c2cccc(NC(=O)CCCC(=O)O)c2)n1	16.2
Nc1cc(=O)[nH]c(=O)n1-c1ccc(Cl)cc1	23.6
O=C1CCCc2c1cc(-c1ccccc1)n2-c1ccc(O)cc1	-8.3
CCOc1ccc(CCNc2cc(C)nc3ncnn23)cc1OCC	15.5
CSc1ncccc1C(=O)NCC1CCCCC1	15.7
Cc1cc(C)c([N+](=O)[O-])cc1NC(=O)CCS(=O)(=O)c1ccccc1	20.6
C=CCn1c2[n+](c3ccccc3c1=O)CCCCC2	18.3
S=C(NCCc1ccccn1)Nc1ccccc1	17.1
COc1cccc(NC(=O)Nc2cccc(C(=O)O)c2)c1	-1.9
Cc1[nH]c2ccccc2c1C(=O)CSC(=S)N1CCOCC1	18.8
NS(=O)(=O)c1ccc(NC(=O)C2Cc3ccccc3C(=O)O2)cc1 (stereo not given)	6.9
Cc1cc(/C=N/O)c(C)n1-c1cccc(Cl)c1	4.2
O=C1C=C(NCc2ccc(Cl)cc2)CCC1	10.2
CC(CCc1ccccc1)NC(=O)COC(=O)c1cccs1 (stereo not given)	4.2
O=C(Cc1cccs1)Nc1nnc(-c2ccccc2)s1	-0.2
CCCCCC[N+](C)(C)CCSSCC[N+](C)(C)CCCCCC	15.1
c1cnc2nc(-c3ccc4c(c3)OCO4)cn2c1	12.2
CCN(C(=O)CSc1nnnn1C)c1c(N)n(Cc2ccccc2)c(=O)[nH]c1=O	0.6
Cn1ccnc1SCC(=O)c1c[nH]c2ccccc12	10.6
Cc1ccccc1N(CC(=O)NC(C)(C)C)C(=O)c1ccc(-c2ccccc2)[nH]1	10.8
COC(=O)c1nnn(CC(=O)NC(=O)Nc2ccc(F)cc2)c1C(=O)OC	7.5
Cn1ncc(N2CCN(C(=O)c3ccc(Cl)cc3)CC2)c(Cl)c1=O	11.9
O=C(Nc1cccc(F)c1)c1ccc(-c2ccccc2Cl)o1	13.0
COc1ccc(NC(=O)c2cc3c(=O)n4ccccc4nc3n2C)cc1OC	2.8
Cc1cccc(NC(=O)CCC(=O)OCC(=O)c2ccc(Oc3ccc([N+](=O)[O-])cc3)cc2)c1	17.5
CN1CCN(/N=C/c2cccc(Cl)c2Cl)CC1	11.8
COc1ccc(Nc2ccc(N3C(=O)CCCC3=O)cc2[N+](=O)[O-])c(OC)c1	16.5
CCc1cc(=O)oc2cc(OCC=C(C)C)ccc12	15.3
COC(=O)c1c(N2C(=O)[C@H]3[C@@H](C2=O)[C@]2(C(=O)Nc4c(C)cc(C)cc42)N2CCC[C@@H]32)sc(C)c1C	14.8
Cc1nn(C)cc1NC(=O)Cn1nc(C(F)(F)F)cc1C1CC1	7.3
COc1ccc(CCNCC(O)Cn2c3ccccc3c3ccccc32)cc1OC (stereo not given)	18.5
CCC/C=N/NC(=O)c1ccccc1O	15.9
NS(=O)(=O)c1ccc(N2N=C(c3ccccc3)CC2c2cccc(F)c2)cc1 (stereo not given)	9.6
O=C(COC(=O)/C=C/c1ccc(S(=O)(=O)N2CCc3ccccc32)cc1)NC1CCS(=O)(=O)C1 (stereo not given)	10.5
Fc1ccc(/C=N/Nc2nc(-c3cccnc3)nc3ccccc23)cc1	12.7

Shown as comma-separated lines: entries from further up.
canonical_smiles,Calb biofilm kill
O=C(Nc1cccc(F)c1)c1ccc(-c2ccccc2Cl)o1,13.0
COc1ccc(NC(=O)c2cc3c(=O)n4ccccc4nc3n2C)cc1OC,2.8
Cc1cccc(NC(=O)CCC(=O)OCC(=O)c2ccc(Oc3ccc([N+](=O)[O-])cc3)cc2)c1,17.5
CN1CCN(/N=C/c2cccc(Cl)c2Cl)CC1,11.8

Following part:
SMILES	Calb biofilm kill
Cc1ccc(S(=O)(=O)N2CCC(NC(=O)c3cccc(C)c3)CC2)cc1	23.1
O=C1/C(=C\c2ccc(C(F)(F)F)cc2)CSc2sccc21	14.5
O=C(Cc1cccc2ccccc12)NCCC1=CCCCC1	14.8
Cc1c(S(=O)(=O)NCc2ccccc2)c(=O)n(C)c(=O)n1C	22.9
Cc1ccc(C)n1C(CC(=O)O)c1ccc(C#N)cc1 (stereo not given)	12.3
CCN1C(=O)C2(C(C(=O)c3cc4ccccc4o3)=C(O)C(=O)N2CCCN(C)C)c2ccccc21 (stereo not given)	24.0
c1cc(CNC2C3CC4CC(C3)CC2C4)ccn1 (stereo not given)	14.6
CN(C)C(CNC(=O)c1ccc2ccccc2c1)c1ccco1 (stereo not given)	10.0
O=C(NCc1ccco1)c1cc([N+](=O)[O-])cc([N+](=O)[O-])c1	6.2
CC(c1nnc(SCC(=O)Nc2cccnc2Cl)n1Cc1ccccc1)N(C)C (stereo not given)	18.9
O=C(COC(=O)c1cccc(S(=O)(=O)NCc2ccccc2)c1)c1ccccc1	15.6
C[C@H]([C@@H](N)C(=O)N[C@@H](C(=O)O)[C@@H]1O[C@H](n2ccc(=O)[nH]c2=O)[C@@H](O)[C@H]1O)[C@@H](O)c1ccc(O)cn1	10.1
Cc1onc(-c2ccccc2)c1C(=O)NC(=S)Nc1sc2c(c1C#N)CCCC2	11.4
O=c1oc2ccccc2c(N2CCCC2)c1[N+](=O)[O-]	6.0
O=[N+]([O-])c1cnc(N2CCCCC2)c([N+](=O)[O-])c1	4.8
Cc1ccc(S(=O)(=O)CC(O)COc2ccccc2C#N)cc1 (stereo not given)	-3.6
C/C(=N\NC(=O)c1ccc(Cl)c(S(=O)(=O)Nc2ccccc2Cl)c1)c1ccncc1	21.7
O=C(C1=C[C@H](c2ccc(Br)cc2)C[C@H](OCCCCO)O1)N1CCOCC1	10.9
Cc1ccc(C(=O)c2cc3c(cc2[N+](=O)[O-])OCCO3)cc1	12.3
S=C(Cc1cccnc1)N1CCOCC1	3.0

As entered above.
`Cc1ccc(C)n1C(CC(=O)O)c1ccc(C#N)cc1` (stereo not given) – Calb biofilm kill: 12.3
`O=c1oc2ccccc2c(N2CCCC2)c1[N+](=O)[O-]` – Calb biofilm kill: 6.0
`Cc1ccc(S(=O)(=O)N2CCC(NC(=O)c3cccc(C)c3)CC2)cc1` – Calb biofilm kill: 23.1
`O=C(C1=C[C@H](c2ccc(Br)cc2)C[C@H](OCCCCO)O1)N1CCOCC1` – Calb biofilm kill: 10.9

The main list resumes with the 7 entries that preceded the break.
SMILES	Calb biofilm kill
O=c1oc2ccccc2c(N2CCCC2)c1[N+](=O)[O-]	6.0
O=[N+]([O-])c1cnc(N2CCCCC2)c([N+](=O)[O-])c1	4.8
Cc1ccc(S(=O)(=O)CC(O)COc2ccccc2C#N)cc1 (stereo not given)	-3.6
C/C(=N\NC(=O)c1ccc(Cl)c(S(=O)(=O)Nc2ccccc2Cl)c1)c1ccncc1	21.7
O=C(C1=C[C@H](c2ccc(Br)cc2)C[C@H](OCCCCO)O1)N1CCOCC1	10.9
Cc1ccc(C(=O)c2cc3c(cc2[N+](=O)[O-])OCCO3)cc1	12.3
S=C(Cc1cccnc1)N1CCOCC1	3.0
COc1cccc(C2C(C(=O)Nc3ccccc3)=C(C)N=c3s/c(=C/c4ccc(OCC(=O)O)cc4)c(=O)n32)c1 (stereo not given)	22.4
O=C(CNC(=O)c1cccs1)NCCN1CCC(Cc2ccccc2)CC1	11.7
O=C(COC(=O)CN=C1NS(=O)(=O)c2ccccc21)Nc1ccccc1OC(F)F	13.7
O=C(COC(=O)C1CCC(=O)N1)Nc1cc(Cl)ccc1Cl (stereo not given)	18.7
CCOC(=O)c1c[nH][nH]c1=O	14.2
CC(=O)c1c(C)nc(-c2ccc(OCC(=O)Nc3ccc(F)cc3)cc2)n1O	15.1
CCCc1nc(SCC(=O)Nc2nnc(SCC)s2)c2c(=O)n(C)c(=O)n(C)c2n1	17.4
C/C(CC(=O)C(F)(F)F)=N\NC(=O)/C(C#N)=C/N(C)C	-5.3
Cc1[nH]c2ccccc2c1C(=O)COC(=O)c1ccc([N+](=O)[O-])s1	7.2
Cc1ccc(NC(=O)CSc2nnc(CNC(=O)c3cccs3)o2)c(C)c1	21.8
CS(=O)(=O)c1nc(-c2ccc(Br)cc2)n[nH]1	7.2
CN(C)C(=O)N1CCC(C(=O)N2CCCC(C(=O)c3cccc4ccccc34)C2)CC1 (stereo not given)	14.3
CCn1c2ccccc2c2cc(NC(=O)COC(=O)c3ccccc3Br)ccc21	22.8
COc1ccc(CCN2C(=O)CC(NNC(=O)c3cccc(O)c3)C2=O)cc1 (stereo not given)	15.7
O=C(CN(Cc1cccs1)C(=O)CNS(=O)(=O)c1ccc(Cl)cc1)NCC1CCCO1 (stereo not given)	7.4
Nc1nnc(-c2cccc([N+](=O)[O-])c2)s1	12.6
CCNC(=S)N(CCc1c(C)[nH]c2ccc(C)cc12)Cc1cccs1	10.3
COC(=O)c1sccc1NC(=S)Nc1ccc(F)cc1	13.4
O=C(NC1CCCCC1)C(=O)N(Cc1cccnc1)C(C(=O)NCc1ccco1)c1ccccc1 (stereo not given)	4.6
O=C(Nc1ccc(Cl)cc1)NC1CCCCNC1=O (stereo not given)	14.9

Taken from the results shown, two compounds:
SMILES	Calb biofilm kill
CCCc1nc(SCC(=O)Nc2nnc(SCC)s2)c2c(=O)n(C)c(=O)n(C)c2n1	17.4
C/C(CC(=O)C(F)(F)F)=N\NC(=O)/C(C#N)=C/N(C)C	-5.3

(further entries)
SMILES	Calb biofilm kill
CC(C)C(C)NC(=O)CSc1nnc(-c2c[nH]c3ccccc23)o1 (stereo not given)	11.7
Cc1cc(C)nc(N/N=C/C2=C(O)CC(c3ccc(F)cc3)CC2=O)n1 (stereo not given)	29.4
CC(C)n1c(SCC(=O)Nc2ccccc2)nc2c1c(=O)[nH]c(=O)n2C	9.1
Cc1ccc(NC(=S)NCC(C)CSc2ccc(Cl)cc2)cc1 (stereo not given)	15.9
O=C(Cc1ccc([N+](=O)[O-])cc1)N1N=C2CCCCC2C1(O)C(F)(F)F (stereo not given)	2.4
Cc1ccc(Nc2ncnc(N)n2)cc1	-6.5
Cc1cc(C)n2c(SCc3ccc(Br)cc3)nnc2n1	15.5
C=CCN1C2CCCC1CC(NC(=O)Nc1cc(C)cc(C)c1)C2 (stereo not given)	8.7
Cn1c(CCC(=O)OCC(=O)NCc2ccccc2Cl)nc(=O)c2ccccc21	11.0
CS(=O)(=O)Oc1ccc2c(c1)O/C(=C\C=C\c1ccccc1)C2=O	18.2
COC(=O)c1cn(C(=O)/C=C/c2ccc(OC)c(OC)c2)c2ccccc12	-0.4
CCOC(=O)C1=C(C)N=c2s/c(=C3/C(=O)Nc4ccccc43)c(=O)n2C1c1ccc(C)cc1 (stereo not given)	15.4
COc1ccccc1NS(=O)(=O)c1cc(NC(=O)c2sccc2C)ccc1N1CCOCC1	5.3
C/C=C/C(=O)N1c2ccccc2C(C)=CC1(C)C	12.2
NNC(=O)Cn1c(-c2nonc2N)nc2ccccc21	6.8
Nc1ccc(C(=O)OCCCc2nc3cc4ccccc4cc3[nH]2)cc1	13.3
O=c1[nH]c(CN2CCOCC2)nc2cc(Cl)ccc12	10.2
CCCn1c(C)cc(C)c(C#N)c1=O	14.8
CCOC(=O)C1=NN(C(=O)COc2ccccc2)C(O)(c2ccc(Cl)cc2)C1 (stereo not given)	26.0
COc1ccc(C(=O)NCC(=O)OCC(=O)c2ccc3c(c2)NC(=O)CO3)cc1OC	8.5
C=CCSc1nc(C)c(CC(=C)C)c(=O)[nH]1	10.6
Cc1ccc(NC(=S)NC(C)CCc2ccccc2)cc1C (stereo not given)	-2.2
C/C(CC(=O)Nc1cccnc1)=N\NC(=O)C(=O)Nc1cccc(C)c1	21.8
COc1cc(/C=C/c2nc(-c3ccccc3O)n[nH]2)cc(OC)c1OC	11.7
CN(Cc1cnn(C)c1)C(=O)c1ccc(OC2CCN(CCc3ccccc3)CC2)cc1	15.6
Cc1ccc(-c2nc(N=Nc3ccc(O)cc3)n[nH]2)cc1	14.3
CCNC(=O)/C(C#N)=C/c1c(N2CC(C)OC(C)C2)nc2ccccn2c1=O (stereo not given)	11.3
CSc1ccc(CN(C)Cc2nc3cc(C(F)(F)F)ccc3c(=O)[nH]2)cc1	-4.5
CC(=O)Nc1ccc(CN2CCN(CC=C(C)C)C(CCO)C2)cc1 (stereo not given)	28.1
Cc1nn(C(C)C(=O)NCC2CCCO2)c(C)c1[N+](=O)[O-] (stereo not given)	0.2
O=C1NC(=S)N(c2cccc(Cl)c2)C12CCCCC2	11.3
O=C(CC1CCCCC1)NCc1ccc(F)cc1	14.7
CCOC(=O)Cn1c(=O)oc2cc(S(=O)(=O)N3CCN(C(=O)c4ccco4)CC3)ccc21	18.1
CCOC(=O)c1c(CSc2ccc(C)cc2)oc2ccc(O)cc12	8.1
O=C(CSCC(=O)NC1CCCC1)Nc1ccccc1	21.7
Cc1cc(C)cc(NC(=S)N2CCC(N(C)CC3CCCO3)CC2)c1 (stereo not given)	15.8
Cc1ccc(CN(C)C(=O)CC2C(=O)NCCN2CC2CCCCC2)cc1 (stereo not given)	0.2
C=CCNc1nnnc2c1sc1nc(N3CCOCC3)c3c(c12)CCCC3	15.5
C/C(=N/Nc1ccc(F)cc1)c1ccc(Cl)s1	5.8
C=CCN(CC=C)S(=O)(=O)c1ccc(C(=O)Nc2nnc(COC)o2)cc1	1.9
Cc1c(NC(=S)N/N=C/c2cc([N+](=O)[O-])ccc2O)c(=O)n(-c2ccccc2)n1C	10.8
O=C(CCSc1ccc(Cl)cc1)N1CCN(c2ccc(O)cc2)CC1	27.2
O=C(COc1ccc(S(=O)(=O)NC2CCCCC2)cc1)NCCC1=CCCCC1	4.7
O=[N+]([O-])c1ccccc1S(=O)(=O)n1nnc2ccccc21	3.7
